# CtBP-E1A blk – blocks the CtBP interaction with E1A | AlphaScreen GST-E1A/His-CtBP binding, 1536-well; hits give low values; control for the full effect not named in the record | activity change, % (test concentration not listed) | actives 0.49% (n = 340,000); in the data active means activity change below about -65%; inconclusive means about -30% to -65%; inactive means above about -30%; further: on the % scale 0 is the no-effect control and ±100 the full control effect; compound concentration not given in the record
#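 AlphaScreen with 125 nM GST-E1A and 125 nM His-CtBP (5X stocks) in Tris pH 8.0, 300 mM NaCl, BSA, Tween 20, TCEP. Compounds preincubated 2 h at 37 deg C, then glutathione donor/nickel acceptor beads added for 1 h at 37 deg C in dark.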
# gsp antagonist – antagonists of gsp mutant (McCune-Albright syndrome). gsp-mutant cells, cAMP HTRF, 30 min; control for the full effect not named in the record. Potency, µM (top dose mostly 76.9 µM), inactives show at the top dose activity change, negative = inhibition, actives largely listed as inhibitors. actives 0.4% (n = 340,000). AID 624288; active = falling curve of any shape with a large fitted effect; inconclusive = falling curve, mostly with a smaller effect; inactive = flat or rising curve; cell line not stated here;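 further: intracellular cAMP measured with PDE inhibitor Ro 20-1724 present during compound exposure; potency means the concentration at half of the fitted maximal effect; on the % scale 0 is the no-effect control and ±100 the full control effect; nearly all actives have a fitted effect of over 65% in size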
#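 HTRF cAMP measurement after 30 min RT detection following 30 min, 37C compound treatment alongside […] (added as 300 uM solution) in G418-selected cells seeded at 2000/well and grown 16–24 h.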
# Six1-Eya2 inh – blocks human Six1 binding to Eya2; AlphaScreen GST-Six1/His-Eya2 binding, biochemical; hits give low values; control for the full effect not named in the record; actives 0.56% (n = 360,000); activity change, % (test concentration not listed); AID 651725; in the data active = activity change below about -65%; inconclusive = about -30% to -65%; inactive = above about -30%; further: on the % scale 0 is the no-effect control and ±100 the full control effect; compound concentration not given in the record
# Target sequence (O00167 whole entry, looked up): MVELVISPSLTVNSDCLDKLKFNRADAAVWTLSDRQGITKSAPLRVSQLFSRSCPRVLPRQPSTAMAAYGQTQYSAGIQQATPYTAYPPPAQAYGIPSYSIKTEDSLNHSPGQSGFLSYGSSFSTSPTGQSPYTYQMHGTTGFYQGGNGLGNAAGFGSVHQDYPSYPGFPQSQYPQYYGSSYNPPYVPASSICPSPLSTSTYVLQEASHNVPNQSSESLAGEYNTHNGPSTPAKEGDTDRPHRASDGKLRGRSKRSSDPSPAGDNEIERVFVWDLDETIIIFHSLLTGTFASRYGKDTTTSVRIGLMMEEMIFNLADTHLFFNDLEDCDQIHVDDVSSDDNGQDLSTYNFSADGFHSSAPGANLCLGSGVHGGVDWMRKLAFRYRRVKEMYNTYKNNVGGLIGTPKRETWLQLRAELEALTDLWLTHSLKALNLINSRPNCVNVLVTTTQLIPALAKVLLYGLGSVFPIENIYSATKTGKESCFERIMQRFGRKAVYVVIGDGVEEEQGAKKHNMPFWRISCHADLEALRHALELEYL
# Target sequence (Q15475 whole entry, looked up): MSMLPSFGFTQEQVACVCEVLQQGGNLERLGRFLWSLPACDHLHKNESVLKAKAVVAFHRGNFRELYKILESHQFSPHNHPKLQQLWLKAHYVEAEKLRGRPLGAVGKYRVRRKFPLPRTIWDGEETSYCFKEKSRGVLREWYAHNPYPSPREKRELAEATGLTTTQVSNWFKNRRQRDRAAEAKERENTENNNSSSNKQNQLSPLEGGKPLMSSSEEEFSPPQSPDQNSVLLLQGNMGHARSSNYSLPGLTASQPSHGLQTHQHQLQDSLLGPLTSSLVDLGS
#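 AlphaScreen with GST-Six1 and His-Eya2 (5X mix: 250 nM and 500 nM), glutathione donor and nickel acceptor beads; buffer 50 mM Tris pH 8.0, 300 mM NaCl, 1 mM TCEP; 1 h at 37 C in the dark.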
# D2 PAM – potentiates the human D2 dopamine receptor allosterically. P14416. actives 0.23% (n = 360,000). DiscoveRx D2 beta-arrestin cells, luminescence, 90 min; 100% = 57 uM dopamine signal. potentiation, % (concentration not given with the values); active = potentiation of 50% or more; inconclusive = 30% to 50%; inactive = 30% or less;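 further: compound concentration not given in the record; tested on top of an EC20 dose of dopamine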
#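 PathHunter beta-arrestin assay in DiscoveRx D2 cells. Compounds were added with an EC20 of dopamine (50 nM final) for 90 min at 37 deg C. Luminescence was read 1 h after detection reagent, with 57 uM dopamine as the EC100 control.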
# D2 ag – agonists of human D2 dopamine receptor (beta-arrestin); actives 0.084% (n = 360,000); DiscoveRx PathHunter D2 beta-arrestin, luminescence, 90 min; 100% = 57 uM dopamine signal; AID 624465; activation, % (test concentration not listed); in the data active = activation above about 40%; inconclusive = about 15% to 40%; inactive = below about 15%; further: compound concentration not given in the record; the text of the record calls up to 30% inactive
#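 Agonist mode: compounds alone added to overnight-plated D2 PathHunter cells for 90 min at 37 C, with 57 uM final dopamine (EC100) defining full response. Beta-arrestin recruitment detected by chemiluminescent reagent, read after 1 h at ambient temperature.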
# gsp agonist – agonists of gsp mutant (McCune-Albright syndrome); gsp mutant cells, cAMP HTRF, 30 min; control for the full effect not named in the record; Potency, µM (doses to about 76.9 µM), for inactives: top-dose activation (cAMP increase), most hits filed as activators; actives 0.13% (n = 340,000); AID 624287; active = well fitted activation curve with a large enough effect; inconclusive = small, poorly fitted or top-dose-only effect, or another doubt; inactive = no such curve, though single readings can be large or run the other way; cell line not stated here;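 further: phosphodiesterase inhibitor Ro 20-1724 added with compounds to block cAMP breakdown; potency means the concentration at half of the fitted maximal effect; nearly all actives have a fitted effect of over 60% in size; about a fifth of the inactives were tested at one dose only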
#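 Cells stably selected in G418 were plated at 2000/well, grown 16-24 hr, then given compounds in DMSO with the PDE inhibitor […] (300 uM solution added) for 30 min at 37C; cAMP was read by HTRF.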
# * marks the source's active call; other numbers are inactive results; u = inconclusive; x = no result given; [ ] = another dose, or the depositor's remark. Compounds as they come, and some 1.4% of all compounds hit somewhere here.
# Second line of a record: gsp antagonist	D2 PAM	Six1-Eya2 inh	gsp agonist	D2 ag	CtBP-E1A blk
Fc1ccc2[nH]c3c(N4CCc5ccccc5C4)ncnc3c2c1
    u	-9	-8	8%[15.4 µM]	u	-3
O=C(N/C(=C\c1cccc([N+](=O)[O-])c1)C(=O)N1CCOCC1)c1cccc(Br)c1
    -24%	4	-2	-47%[inhibitor]	-2.6	16
C[C@H](NC(=O)[C@@H]1CSC2c3ccccc3C(=O)N21)C(=O)NC1CCCC1 (stereo partly drawn)
    3%	-9	2	u	0.9	6
CC1(c2nnc(Cc3ccccc3)o2)CC(c2ccc([N+](=O)[O-])cc2)=NO1 (stereo not drawn)
    -2%	9	-29	x	7.9	-10
CC[C@@]1(C(=O)OC)N[C@H](CN(C)C(=O)Nc2ccc(C)cc2)[C@@H]2C(=O)N(C)C(=O)[C@@H]21
    -2%	x	4	x	-1.6	9
CCC(=O)N1CCN(c2ccc(NC(=O)COc3ccc(C)cc3C)cc2)CC1
    -20%	-4	-2	u	4.0	-2
O=C(Cn1ccc([N+](=O)[O-])n1)N1CCc2ccccc21
    7%	3	3	18%	5.5	x
COc1ccccc1NC(=O)/C(=N/OCc1ccc(F)cc1)C(C)=O
    4%	-6	-10	7%	0.4	-1
COc1ccc2oc(-c3ccccc3)c(C(=O)O)c2c1
    -17%	-11	1	21%	-3.1	-1
Cc1ccc(-c2cc(C(=O)Nc3ccc(S(=O)(=O)N4CC(C)OC(C)C4)cc3)[nH]n2)c(O)c1 (stereo not drawn)
    -4%	-1	4	6%[15.4 µM]	-0.6	-10
Cc1ccnc(NC(=O)c2cccc(NC(=O)c3ccccc3C)c2)c1
    1%	-3	2	-43%[inhibitor]	7.5	x
Cc1cc(C)c2nc(-c3cccnc3)cc(C(=O)Nc3ccc(S(=O)(=O)Nc4onc(C)c4C)cc3)c2c1
    u	-2	-6	-21%	12	-3
COc1cc(C(=O)N2CCCCC2c2cc(C(=O)NC(C)C)no2)cc(OC)c1C (stereo not drawn)
    x	0	0	x	-2.3	2
CS(=O)(=O)c1ccc(-c2sc3cc4c(cc3c2C(=O)NN2CCOCC2)OCO4)cc1
    -7%	-2	13	7%	-2.5	-10
Cc1nc(C)c(-c2ccc(SCc3ccccc3C)nn2)s1
    -7%	-3	-13	13%	-2.4	x
Cn1c(=O)c2[nH]c(N3CCOCC3)nc2n(-c2ccccc2)c1=O
    5%	4	5	2%	2.1	0
CC(C)(C)OC(=O)C1C(=O)CC(C)(O)C(C(=O)OC(C)(C)C)C1c1cccnc1 (stereo not drawn)
    1%	18	19	0%	-3.2	0
Cc1ccc(NC(=O)c2noc3c2CC(C(C)(C)C)CC3)cc1 (stereo not drawn)
    10%	-1	11	u	2.5	4
CCCCCOC(=O)Nc1ccc(S(=O)(=O)Nn2cnnc2)cc1
    8%	-2	-1	-47%[inhibitor]	-0.8	11
CCN(CC)S(=O)(=O)c1ccc(C(=O)N2CCc3ccccc32)cc1
    -2%	-2	4	u	-0.1	-2
COc1ccccc1-c1c(NC(=O)c2ccco2)n(C)c2ccccc2c1=O
    10%	-6	1	9%	-5.6	9
CC(OC(=O)CNC(=O)c1ccc(Cl)cc1)C(=O)NC1CCCCC1C (stereo not drawn)
    -5%	2	3	-3%[15.4 µM]	-3.4	-9
Nc1nc2ccccc2n1CCOc1ccccc1Cl
    4%	-13	-2	4%	1.9	-5
C[C@H]1C=C(C(=O)N2CCN(Cc3ccc4c(c3)OCO4)CC2)O[C@@H](OCc2ccc(CO)cc2)C1
    -10%	-13	-3	x	-2.0	-21
COc1ccc(S(=O)NC2CCCCC2)c(OC)c1C (stereo not drawn)
    4%	-10	7	-1%	1.8	8
COc1ccc(CC(=O)Nc2c3c(nn2-c2ccccc2C)CS(=O)C3)cc1 (stereo not drawn)
    -3%	3	0	-15%	-2.2	5
COc1ccc(C(=O)/C=C2/C(=O)Nc3ccccc32)cc1OC
    -1%	-38	7	-4%	-2.6	x
CC1O[C@@H]2O[C@](O[C@H](C)CC[C@@H](C)O)(c3ccccc3)O[C@@H]2C[C@H]1O (stereo partly drawn)
    13%	-54	1	x	-1.4	-3
Cc1ccc(C(=O)Nn2cnc3scc(-c4cccs4)c3c2=O)c(O)c1
    -35%	-2	-9	0%	-2.7	0
O=C1Nc2ccccc2N=C(c2ccccc2)C1N(Cc1ccc(F)cc1)C(=O)c1cccnc1 (stereo not drawn)
    x	5	-4	x	-6.4	-1

# Structural class: those above containing fluorine.
# Second line of a record: gsp antagonist	D2 PAM	Six1-Eya2 inh	gsp agonist	D2 ag	CtBP-E1A blk
Fc1ccc2[nH]c3c(N4CCc5ccccc5C4)ncnc3c2c1
    u	-9	-8	8%[15.4 µM]	u	-3
COc1ccccc1NC(=O)/C(=N/OCc1ccc(F)cc1)C(C)=O
    4%	-6	-10	7%	0.4	-1
O=C1Nc2ccccc2N=C(c2ccccc2)C1N(Cc1ccc(F)cc1)C(=O)c1cccnc1 (stereo not drawn)
    x	5	-4	x	-6.4	-1

# Later entries
# Second line of a record: gsp antagonist	D2 PAM	Six1-Eya2 inh	gsp agonist	D2 ag	CtBP-E1A blk
O=C(NCc1cccnc1)c1cc(C2CCCCN2C(=O)c2ccc3ccccc3c2)on1 (stereo not drawn)
    x	-2	3	x	-6.1	-5
NC(=O)c1ccccc1N/C=C/C(=O)c1ccco1
    9%	-10	2	u	-3.1	-4
Cc1sc2ncnc(N3CCC(C(=O)Nc4ccc(F)cc4Cl)CC3)c2c1C
    40µM*	-23	-8	19%	-3.1	x
COc1ccc(C(=O)NCCCNC(=O)c2cc3ccccc3[nH]2)cc1OC
    5%	-11	-15	-13%	-2.8	x
Cc1cccc(C(=O)NCc2nnc(SCC(=O)NC3=NCCS3)n2C)c1
    -9%	-5	9	4%[15.4 µM]	0.4	16
Cc1csc(N=Nc2ccc(N(C)C)cc2)[n+]1[O-]
    x	-26	-77*	-85%[inhibitor]	-12	u
COC(=O)CCCC(=O)N1CCCC(CCC(=O)NCc2ccc(F)c(F)c2)C1 (stereo not drawn)
    6%	-3	6	3%[15.4 µM]	1.7	8
CCC(=O)Nc1cccc(C(=O)/C=C/c2ccc(F)cc2)c1
    u	-3	-7	-54%[inhibitor]	-1.3	0
CC(/C=N\NC(=O)c1ccc(C)nc1)=C\c1ccccc1
    5%	-33	6	u	-0.4	8
c1ccc2sc(NC3=NCN(CC4CCCO4)CN3)nc2c1 (stereo not drawn)
    7%	-5	11	16%[15.4 µM]	-4.2	-5
Cc1cccc2cc(C(c3nnnn3CC3CCCO3)N3CCOCC3)c(=O)[nH]c12 (stereo not drawn)
    -5%	0	-2	0%	-2.4	4
O=C(N/N=C/c1cn(-c2ccccc2)nc1-c1cccnc1)c1ccc(F)cc1
    -19%	-1	-1	3%	-1.4	-14
CCn1cc(C(=O)N2CCN(c3ccc(F)cc3)CC2)c2cc(OC)c(OC)cc2c1=O
    1%	-2	2	-17%[15.4 µM]	0.5	-2
CC(NS(=O)(=O)OCC(Cl)(Cl)Cl)c1ccc(Br)cc1 (stereo not drawn)
    -2%	-4	-2	19%	-2.5	10
CCCNC(=O)CN(C)S(=O)(=O)c1c(C)cc(C)cc1C
    3%	-15	4	0%	-2.8	4
CN(CC(=O)NCc1ccco1)CC(=O)Nc1ccc(F)c(F)c1F
    1%	-5	-4	1%	4.0	6
NC1=NC(=O)S/C1=C\c1ccc(O)cc1
    8%	-23	-13	11%	-2.7	-12
CCC(CC)=N/N=C/c1c(O)n(CC)c2cc(C3=NNC(=O)CC3)ccc12
    -6%	-36	u	20%	-7.0	-18
Cc1ccc(OCc2nnc(SCC(=O)CC(=O)Nc3ccccc3)o2)cc1
    u	2	-2	3%	-2.8	3
Cc1c(N=C2SCC(=O)N2/N=C/c2ccccc2Cl)c(=O)n(-c2ccccc2)n1C
    u	-16	-5	-28%	-1.3	0
CCOC(=O)CC(=O)CSc1nc2c(c(C)c1C#N)CCC2
    -2%	-2	-5	-3%	-3.4	3
COc1cccc(NC(=O)/C=C/c2ccccc2[N+](=O)[O-])c1
    -5%	-28	-7	-9%	-0.1	7
CN(c1ccccc1)c1nc(N)c([N+](=O)[O-])c(Nc2ccccc2F)n1
    -2%	-10	-16	19%	-22	-21
O[C@H]1C[C@H](c2ccc(Cl)cc2)N(Cc2cccs2)C[C@@H]1n1cc(-c2ccc(F)cc2)nn1
    x	2	-5	-34%[inhibitor]	-7.9	1
COc1cccc(NS(=O)(=O)c2ccc(Br)s2)c1
    -21%	-8	6	6%	-0.3	-5
CC(C)(C)C(=O)/C(C#N)=C/c1cccs1
    8%	-7	5	-2%[15.4 µM]	7.0	-19
CSc1ncccc1C(=O)OCC(=O)NC12CC3CC(CC(C3)C1)C2
    u	10	2	-17%	1.5	9
COc1cc2c(cc1OC)CN(C(=O)COc1ccc(C)c(C)c1)CC2
    -16%	-4	1	5%	-1.4	-12
Cc1ccc(C(C)C)c(OCC(=O)NC(=S)Nc2ccccc2N2CCOCC2)c1
    5%	3	-2	-28%	-4.9	8
CC1CCN(C(=O)CSc2nc3c(c(=O)n2C)SC(C)C3)CC1 (stereo not drawn)
    -5%	13	-3	-22%[15.4 µM]	-1.6	7
Cc1ccc(C2C(C(=O)c3cccs3)=C(O)C(=O)N2CCN2CCOCC2)o1 (stereo not drawn)
    6%	-10	4	-19%	-4.5	-1
C=C(C)C(=O)Nc1cccc(C2=NOC3(C2)C[C@H](C(N)=O)N(C(=O)C(c2ccccc2)c2ccccc2)C3)c1 (stereo partly drawn)
    -5%	-6	-16	u	-3.9	-23
C#CCOCCOCCOCCNc1nc(N2CCN(C(=O)[C@H](CCCCN)n3cc(CN)nn3)CC2)nc(N2CCN(C(=O)[C@H](CCC(=O)O)n3cc(CN)nn3)CC2)n1
    9%	x	-6	x	-1.7	-7
CS(=O)(=O)N(CC(=O)Nc1ccccc1-c1ccccc1)c1ccccc1
    -9%	-8	5	-21%	0.3	3
Cc1ccc(S(=O)(=O)N(C)CCCC(=O)N2CCN(C=O)CC2)cc1
    -16%	1	5	-4%	-0.4	4
COc1cc(OC)nc(Oc2ccccc2C(=O)Oc2ccccc2Cl)n1
    -16%	-9	7	23%	-3.0	24
O/N=C1\CC/C(=N\O)c2nn(-c3ccc(Cl)cc3Cl)nc21
    -18%	3	-3	-25%	0.2	0
O=C(CN1C(=O)CC(c2ccco2)Sc2ccccc21)NC1CCCCC1 (stereo not drawn)
    50µM*	-4	-15	8%	0.8	-1
CCCN(CCC)c1ncnc2nc[nH]c12
    0%	0	2	-16%	-3.6	-1
CC1COCC(C)N1C1=C(Cl)C(=O)c2ccccc2C1=O (stereo not drawn)
    -9%	7	-16	-17%	5.3	4
